Screens from PubChem BioAssay.
HPGD block: blocks human HPGD enzyme activity | Potency, µM, inactives show at the top dose activity change, negative = inhibition, most hits filed as inhibitors | purified HPGD, NADH fluorescence kinetic, PGE2 substrate | hit rate 4.3% among 150,000; active = well fitted inhibition curve with a large enough effect (not every such curve was filed as active); inconclusive = small, poorly fitted or top-dose-only effect, or another doubt; inactive = no such curve, though single readings can be large or run the other way;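 also: top concentration of the series not given in the record; plate controls included wells without enzyme; inactives centre near -10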
Target sequence (P15428 whole entry, looked up): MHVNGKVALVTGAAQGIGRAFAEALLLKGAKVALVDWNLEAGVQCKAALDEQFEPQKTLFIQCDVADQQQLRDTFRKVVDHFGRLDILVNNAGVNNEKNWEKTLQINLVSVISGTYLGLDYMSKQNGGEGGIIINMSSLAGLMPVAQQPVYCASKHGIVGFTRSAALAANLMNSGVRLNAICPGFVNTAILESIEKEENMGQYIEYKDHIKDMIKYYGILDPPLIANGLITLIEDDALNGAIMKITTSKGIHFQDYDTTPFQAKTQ
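20 nM HPGD preincubated 15 min at room temperature with compound in 50 mM Tris-HCl pH 8, 0.01% Tween 20. Started with 1 mM NAD+ and 30 uM prostaglandin E2; NADH fluorescence (360/450 nm) read 5 times over 30-s intervals, last minus first.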
The depositor's hits bear a star. % is scaled to controls: 0 for no effect and ±100 for the full control effect; potency is read from the fitted curve at half-maximal effect.

For COc1ccc(NC(C)=O)cc1NC(C)C(=O)Nc1ccc(F)cc1 (configuration not stated) the results were HPGD block -1%.
`O=C(Nc1c(-c2ccccc2)nc2sccn12)c1ccccc1` gave HPGD block -6%.
Screening COCCn1c(Cc2ccccc2)nnc1SCC(=O)NC(C)(C)C returned HPGD block -1%.
Cc1cccc(NC(=O)C2CCCN2C(=O)Oc2ccccc2)c1C (configuration not stated) was read as HPGD block -14%.
Screening O=C(O)CN1CCOCCOCCN(CC(=O)O)CCOCCOCC1 returned HPGD block -11%.
Screening CC1(C)N=C(N)N=C(N)N1c1cccc(OCc2cccc(N)c2)c1 returned HPGD block -2%.
Screening CCCCNC(=O)/C=C/c1cccs1 returned HPGD block -16%.
Cc1cc(NC(=O)COc2cccc(C)c2C)no1 was read as HPGD block 0%.
O=C(/C=C/c1ccccc1)c1ccc(O)cc1O was read as HPGD block 16µM*.
Screening Cc1sc(NC(=S)NC(=O)C(C)(C)C)c(C(N)=O)c1C returned HPGD block inconclusive.
COc1ccccc1NC(=O)C1=C(C)Nc2ncnn2C1c1ccccc1C (configuration not stated) was read as HPGD block -11%.
O=C(c1csc(Nc2ccccc2Cl)n1)N1CCCC1 was read as HPGD block 16µM*.
COc1cc(OC)c(C#N)c(S(=O)(=O)Cc2ccccc2)c1 was read as HPGD block -15%.
For O=c1oc2ccccc2c(O)c1/C=C1\C=Nc2ccccc21 the results were HPGD block 2.2µM*.
`CCNS(=O)(=O)c1ccc(CCC(=O)NCCC2=CCCCC2)cc1` gave HPGD block -8%.
Screening CC1C2CC(C(S(=O)(=O)N3CCOCC3)C2=O)C1(C)C (configuration not stated) returned HPGD block -4%.
`CNC(=O)C(C)NS(=O)(=O)c1ccc(F)cc1` (configuration not stated) gave HPGD block -4%.
`Cc1cc(O)c(C(C[N+](=O)[O-])c2ccc(Cl)cc2Cl)c(=O)o1` (configuration not stated) gave HPGD block -12%.
`Cc1ccc(S(=O)(=O)NCCN=C(CN2CCOCC2)NS(=O)(=O)c2ccc(C)cc2)cc1` gave HPGD block 2%.
Screening CCOc1ccc(NC(=O)CCS(=O)(=O)c2ccc3c(c2)CCCN3C(=O)CC)cc1 returned HPGD block -6%.
For O=C(c1ccc(S(=O)(=O)N2CCOCC2)cc1)N1CCN(c2ccc(F)cc2)CC1 the results were HPGD block -4%.
For CCOC(=O)C1=C(C)NC2=C(C(=O)CCC2)C1c1cccnc1 (configuration not stated) the results were HPGD block inconclusive.
For Cc1ccc(NC(=O)CCn2ccc([N+](=O)[O-])n2)nc1 the results were HPGD block -17%.
`CCc1cccc(C)c1NC(=O)CCCC(=O)O` gave HPGD block -2%.

Some of these compounds in order of count of non-hydrogen atoms, low to high:
`CCc1cccc(C)c1NC(=O)CCCC(=O)O` gave HPGD block -2%.
For O=C(c1ccc(S(=O)(=O)N2CCOCC2)cc1)N1CCN(c2ccc(F)cc2)CC1 the results were HPGD block -4%.
`Cc1ccc(S(=O)(=O)NCCN=C(CN2CCOCC2)NS(=O)(=O)c2ccc(C)cc2)cc1` gave HPGD block 2%.

Next section
COc1ccccc1NC(=O)CSc1nnc(Cc2ccccc2)o1 was read as HPGD block -9%.
`Cc1[nH]n(-c2ccc(Cl)cc2)c(=O)c1C=Nc1ccc(S(=O)(=O)N2CCOCC2)cc1` gave HPGD block -17%.
CCC(NS(=O)(=O)c1ccc(OC)cc1)C(=O)NCCC1=CCCCC1 (configuration not stated) was read as HPGD block -5%.
Screening [O-]C1=N/[N+](=C/c2ccc(Cl)cc2)CC1 returned HPGD block -7%.
`CCCCCCCCCCCCCCCCCCOC[C@H](COP(=O)([O-])OCC[N+](C)(C)C)OC(C)=O` gave HPGD block -4%.
`Cc1nc2ccc(S(=O)(=O)NC(C(=O)N3CCn4c3nc3ccccc34)C(C)C)cc2s1` (configuration not stated) gave HPGD block -4%.
Screening O=c1cc(-c2cccc(O)c2)oc2cc(O)ccc12 returned HPGD block inconclusive.
For Cc1[nH]n2c(=O)c3c(nc2c1-c1ccccc1)CCC3 the results were HPGD block -20%.
`O=C(CSc1nnnn1C1CCCC1)Nc1ccc(F)cc1` gave HPGD block -4%.
Screening COc1c2ccoc2c(OCC=C(C)C)c2oc(=O)ccc12 returned HPGD block -7%.
`O=C(Nc1ccc(C(F)(F)F)cc1)C1CC(=O)N(c2ccc3c(c2)OCCO3)C1` (configuration not stated) gave HPGD block -19%.
Screening CC(NC(=O)c1ccc(CS(=O)(=O)c2ccc(Cl)cc2)o1)c1ccc2c(c1)OCCO2 (configuration not stated) returned HPGD block -9%.

An excerpt from above in order of SMILES length, rising:
`CCc1cccc(C)c1NC(=O)CCCC(=O)O` gave HPGD block -2%.
Screening [O-]C1=N/[N+](=C/c2ccc(Cl)cc2)CC1 returned HPGD block -7%.
COc1ccccc1NC(=O)CSc1nnc(Cc2ccccc2)o1 was read as HPGD block -9%.
For Cc1[nH]n2c(=O)c3c(nc2c1-c1ccccc1)CCC3 the results were HPGD block -20%.
For Cc1ccc(NC(=O)CCn2ccc([N+](=O)[O-])n2)nc1 the results were HPGD block -17%.
For CCOC(=O)C1=C(C)NC2=C(C(=O)CCC2)C1c1cccnc1 (configuration not stated) the results were HPGD block inconclusive.
CCC(NS(=O)(=O)c1ccc(OC)cc1)C(=O)NCCC1=CCCCC1 (configuration not stated) was read as HPGD block -5%.
For O=C(c1ccc(S(=O)(=O)N2CCOCC2)cc1)N1CCN(c2ccc(F)cc2)CC1 the results were HPGD block -4%.
Screening CC(NC(=O)c1ccc(CS(=O)(=O)c2ccc(Cl)cc2)o1)c1ccc2c(c1)OCCO2 (configuration not stated) returned HPGD block -9%.
`Cc1[nH]n(-c2ccc(Cl)cc2)c(=O)c1C=Nc1ccc(S(=O)(=O)N2CCOCC2)cc1` gave HPGD block -17%.
`CCCCCCCCCCCCCCCCCCOC[C@H](COP(=O)([O-])OCC[N+](C)(C)C)OC(C)=O` gave HPGD block -4%.

The list continues:
For c1ccc(-c2c[nH]c3[n+]2CCCCC3)cc1 the results were HPGD block -10%.
Screening CCCN(CCC)c1ccc(CC(=O)NC(C)Cc2ccccc2)cc1 (configuration not stated) returned HPGD block -5%.
C/C=C/COC(=O)c1[nH]c2c(c1C)C(=O)CC(c1ccc(N(C)C)cc1)C2 (configuration not stated) was read as HPGD block -18%.
For Cc1cc(OCC(=O)Nc2ccc3c(c2)OCCO3)cc(C)c1Cl the results were HPGD block -9%.
CCCn1c(=O)c(C(=O)Nc2cnccn2)c(O)c2ccccc21 was read as HPGD block -9%.
CCOc1cc(-c2nc(-c3ccccc3)c(-c3cc([N+](=O)[O-])ccc3C)[nH]2)ccc1O was read as HPGD block -2%.
Screening CN(C)c1ccc(C=NCC2(O)CCOC(C)(C)C2)cc1 (configuration not stated) returned HPGD block -13%.
`O=C(CCc1ccc(S(=O)(=O)NC2CCCCC2)cc1)Nc1ccccc1` gave HPGD block -5%.
For O=C(c1cnc(-c2ccccc2)s1)c1ccc(Cl)cc1Cl the results were HPGD block -22%.
Screening CC(C)N1C(=O)C2C(C(=O)NC3CCCCC3)C3C=CC2(O3)C1C(=O)NC1CCCCC1 (configuration not stated) returned HPGD block -2%.
Screening CCCCCCCCCCCCCCCC(=O)OC[C@H](COP(=O)([O-])OCC[N+](C)(C)C)OC(=O)CCCCCCCCCCCCCCC returned HPGD block -5%.
C=CCOc1nc2c(c(=O)n(C)c(=O)n2C)n1Cc1ccccc1Cl was read as HPGD block -3%.
Screening CC1(C)CC2(CCO1)OC(=O)CC2C(=O)NCc1ccccc1 (configuration not stated) returned HPGD block -7%.
Cc1ccc(C(=O)N/C(=C\c2cccs2)C(=O)NCCc2c[nH]c3ccccc23)cc1 was read as HPGD block -8%.
CCN1CCN(C(=O)Nc2ccc(Cc3ccc(NC(=O)N4CCN(CC)CC4)cc3)cc2)CC1 was read as HPGD block -10%.
NC(=O)c1ccc(NC(=O)COC(=O)/C=C/c2cn(-c3ccccc3)nc2-c2cccnc2)cc1 was read as HPGD block inconclusive.
COC(=O)Cc1csc(Nc2ccccc2)n1 was read as HPGD block -14%.
CC(C(=O)Nc1ccc2c(c1)OCCO2)c1ccc([N+](=O)[O-])cc1 (configuration not stated) was read as HPGD block -16%.
Screening O=C(CSc1ncn[nH]1)Nc1ccc(S(=O)(=O)N2CCCC2)cc1 returned HPGD block -2%.
CN1C(=O)c2ccc(NC(=O)C3CCCCC3)cc2C1=O was read as HPGD block inconclusive.
`O=C(O/N=C\c1ccc(N2CCCCC2)c([N+](=O)[O-])c1)c1c(F)cccc1F` gave HPGD block -20%.
`COc1ccc(OC)c(NC(=O)CN(c2ccc(C)cc2)S(=O)(=O)c2c(C)noc2C)c1` gave HPGD block -13%.
Screening CCOC(=O)c1c(NC(=O)CNCC(O)CO)sc(C)c1C (configuration not stated) returned HPGD block -5%.
`C=C(C)CNC(=S)NNC(=O)CCn1c2cc(Cl)ccc2c2ccc(Cl)cc21` gave HPGD block -3%.
Screening CCC1(CC)NC(=O)N(CC(=O)OCC(=O)Nc2ccc(C(F)(F)F)cc2)C1=O returned HPGD block -1%.
`Cc1cccc2sc(N(CCCN(C)C)C(=O)c3sc4ccccc4c3Cl)nc12` gave HPGD block -25%.
`O=c1[nH]c2cc3c(cc2cc1CN(Cc1cccnc1)Cc1nnnn1Cc1ccco1)OCCO3` gave HPGD block inconclusive.
For CCOc1cccc(CNCCO)c1OCc1ccc(Cl)cc1Cl the results were HPGD block -5%.
CN(CC(=O)NC1CCCCC1)S(=O)(=O)c1cccc2nsnc12 was read as HPGD block -5%.
COC(=O)[C@@]1(Cc2ccccc2)[C@H]2c3cc(C(=O)N4CCCC4)n(Cc4ccc(O)c(OC)c4)c3C[C@H]2CN1C(=O)c1ccccc1 was read as HPGD block -14%.
For C=CCNS(=O)(=O)c1sccc1/C=N/O the results were HPGD block -10%.
`N#Cc1ccc(Nc2ccccc2)c(N)c1` gave HPGD block -30%.
`O=C(COC(=O)c1ccccc1OCC(=O)Nc1ccc(Br)cc1)Nc1ccccc1` gave HPGD block -7%.
COc1cc(NC(=O)CCc2ccccc2)c(C(=O)O)cc1OC was read as HPGD block -7%.
Screening Cc1cc(C)nc(NC(=O)c2cccc([N+](=O)[O-])c2)c1 returned HPGD block -3%.
Screening S=C1N[C@H](c2ccccc2)N[C@H](c2ccccc2)S1 returned HPGD block inconclusive.
`COc1ccc(OC)c(Nc2nc(-c3cccc([N+](=O)[O-])c3)nc3ccccc23)c1` gave HPGD block -12%.
`COc1cccc(/C=N/NC(=O)CN2C(=O)NC3NC(=O)NC32)c1` (configuration not stated) gave HPGD block -24%.
For Cc1cccc(C)c1NC(=O)Nc1ccc(S(N)(=O)=O)cc1 the results were HPGD block 0%.
`CCOc1ccc(CCNC(=O)c2cc3ccccn3n2)cc1OCC` gave HPGD block -19%.
COC(=O)c1cc(C(=O)N(Cc2ccccc2)c2ccccn2)cc([N+](=O)[O-])c1 was read as HPGD block -15%.
O=C1CCCC2=C1C(c1cn(-c3ccccc3)nc1-c1cccs1)c1c([nH]c(=O)[nH]c1=O)N2 (configuration not stated) was read as HPGD block -22%.
`COc1ccc(/C=C(/NC(=O)c2ccc(C)cc2)c2nc3ccccc3[nH]2)cc1OC` gave HPGD block -24%.
Screening Cc1nc2ccc(F)cc2cc1C(=O)NCc1ccco1 returned HPGD block 0%.
Screening COCc1cc(=O)n2c([nH]c3ccccc32)c1C#N returned HPGD block inconclusive.
COC(=O)c1ccc(Cc2ccccc2)o1 was read as HPGD block -3%.
Screening CCCCc1n[nH]c2c1/C(=N/O)CC(C)(C)C2 returned HPGD block -6%.
Cc1cc2n(n1)C(c1sccc1C)Nc1ccccc1-2 (configuration not stated) was read as HPGD block -13%.
O=C1C2C3C=CC(O3)C2C(=O)N1CC(O)c1ccccc1 (configuration not stated) was read as HPGD block 11%.
Screening CN1/C(=C\C(=O)COc2ccc3c(c2)OCO3)C(C)(C)c2ccccc21 returned HPGD block inconclusive.
For COc1cccc(NC(=O)CSc2ncnc3c2oc2ccccc23)c1 the results were HPGD block -14%.
Screening CCCCC(CC)CN1C(=O)/C(=C/c2ccncc2)SC1=S (configuration not stated) returned HPGD block inconclusive.
`CCc1ccc(C(=O)CN2CCSC2=N)cc1` gave HPGD block -1%.
For COc1ccc2[nH]c(C(=O)O)c(CCC(=O)O)c2c1 the results were HPGD block inconclusive.
Screening O=C(CN1CCN(C(=O)c2cccc(F)c2)CC1)Nc1ccccc1F returned HPGD block -8%.
For O=C(Nc1ccc2c(c1)Cc1ccccc1-2)c1ccco1 the results were HPGD block -9%.
`CC(C)(C)NCc1cccn1-c1sc2c(c1C#N)CCCC2` gave HPGD block -4%.
For O=C(COC(=O)C1CC(=O)N(c2ccccc2)C1)c1ccccc1 (configuration not stated) the results were HPGD block -5%.
Screening Cc1ccccc1OCC(=O)N/N=C1\CCOc2c(C)cccc21 returned HPGD block -11%.
For COc1ccc(CNC(=S)Nc2cc(C)ccc2C)cc1 the results were HPGD block -21%.
`O=c1[nH]cnc2scc(C3COc4ccccc4O3)c12` (configuration not stated) gave HPGD block -17%.
For CSc1ccccc1-n1nnnc1SCC(=O)NCc1cccs1 the results were HPGD block -11%.
For CC(=O)c1ccc([N+](=O)[O-])cc1 the results were HPGD block -7%.
`CC(=O)c1cc(F)c(N2CCN(C(=O)Cc3ccccc3)CC2)cc1C` gave HPGD block 22µM*.
For Nc1nc(N)c2nn(-c3ccc(C(=O)O)cc3)nc2n1 the results were HPGD block inconclusive.
Screening CN(C)c1oc(-c2ccccc2)nc1C#N returned HPGD block inconclusive.
Screening CCN(CC)Cc1c(C(=O)OC)nnn1-c1nonc1N returned HPGD block -4%.
`Cc1cc(C)n2cc(CSc3nnc(-c4ccccc4)o3)nc2n1` gave HPGD block inconclusive.
For O=C(NCc1ccccc1)c1cccc(S(=O)(=O)N2CCOCC2)c1 the results were HPGD block -6%.
O=C(Cn1ncc2c(=O)oc3ccccc3c21)N1CCCN(Cc2ccccc2F)C1 was read as HPGD block -7%.
For CCC(c1nnnn1C(C)(C)CC)N(CCCO)Cc1cc2cc(C)cc(C)c2[nH]c1=O (configuration not stated) the results were HPGD block -19%.
For CCCCNC(=O)CSc1nc2ccccc2n1S(=O)(=O)c1ccc(Br)cc1 the results were HPGD block 2.5µM*.

The list is partial; the hit share may differ from the screen's.
